Ba CapD inh: CapD enzyme inhibition; purified CapD enzyme, fluorescence intensity read-out; active compounds read low; some hits fall short of the stated cut; z-score (concentration not given with the values); 140,000 compounds, 0.23% hits; AID 492967;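 active = z-score under -4 in either of two replicates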;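 note: stock transfer was 100 nL into about 40 µL; score is relative to mean and spread of the plate; one replicate is shown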
AID504770: E. coli YBA685 growth inhibition, screen for V. cholerae RctB inhibitors; 130,000 compounds, 0.27% hits; AID 504770; z-score (concentration not given with the values); E. coli YBA685 rctB-dependent plasmid, OD600 growth, 3 h; active compounds read low;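 active = z-score under -2 on both plates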;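 note: wells of about 30 µL received 100 nL stock; score is relative to mean and SD of the test wells; the first replicate is given; strong numbers were not always called active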
The depositor's hits bear a star; · = not tested or not shown; & = joins results of further samples; ! = a repeat was not active.

SMILES | Ba CapD inh | AID504770
COc1ccc2nc(NC(=O)c3sc4ncn(CC(=O)N5CC(C)CC(C)C5)c(=O)c4c3C)sc2c1 (centres undefined) | -0.43 | ·
COc1ccc(S(=O)(=O)N(CC(=O)NC2CCCCC2)c2cc(Cl)ccc2OC)cc1OC | -1.2 | ·
O=C(O)c1cccc2cc[nH]c12 | · | -0.3
CCN(CC)c1ccc(NC(=O)CN(C)Cc2cccs2)cc1 | · | 0.25
O=C(O)C12CC3CC(C1)CC(C(F)(F)C(F)C(F)(F)F)(C3)C2 (centres undefined) | 0.53 | ·
CC(C)(C)c1nnc2sc(COc3ccc(Br)cc3)nn12 | -0.14 | 0.2
NS(=O)(=O)c1ccc(C(=O)N/N=C/c2ccccc2Sc2ccc(Cl)cc2)cc1 | 0.45 | ·
O=C(COC(=O)c1ccc2ccccc2n1)NC1CCCC1 | · | 0.55
c1nc(Nc2ccc3c(c2)OCO3)c2c3c(sc2n1)CCC3 | · | -1.2
CCOc1ccc(-n2c(=S)sc3c(=O)[nH]c(SCC(=O)NCc4ccco4)nc32)cc1 | 0.42 | ·
COC(=O)C1=C(C(=O)OC)SC2(S1)C(C(=O)OC)=C(C(=O)OC)SC1=C2c2cc(C)c(C)cc2N(C(=O)c2cccs2)C1(C)C | 0.67 | ·
O=C(NCc1ccc2c(c1)OCO2)C1(S(=O)(=O)c2ccc(Cl)cc2)CC1 | -0.41 | 0.5
Nc1ccc(CCC(=O)NC2CC2)cc1 | -0.61 | 2.8
COc1cccc(/C=C2\N=C(c3cccc(Br)c3)OC2=O)c1 | 1.4 | ·
O=C(CSCc1cc2cccc3c2n(c1=O)CCC3)NCCc1ccccc1 | 6.8 | ·

The list goes on, starting with the last 2 of the part before.
SMILES | Ba CapD inh | AID504770
COc1cccc(/C=C2\N=C(c3cccc(Br)c3)OC2=O)c1 | 1.4 | ·
O=C(CSCc1cc2cccc3c2n(c1=O)CCC3)NCCc1ccccc1 | 6.8 | ·
Cc1nccn1Cc1ccc(C(=O)O)cc1 | · | 0.35
COc1cc2c(cc1OC)CN(C(C)C(=O)Nc1cccc(C#N)c1)CC2 (centres undefined) | · | 0.25
CC(C)(C)c1cc(NC(=O)COC(=O)c2ccc(Br)o2)n(-c2ccccc2)n1 | · | 0.35
Cc1cc(C)c(OCCn2ccnc2)c(C)c1 | 0.69 | 0.75
Cc1nc2ccccc2c2nc(NC(=O)Cc3ccccc3)nn12 | -0.46 | ·
COc1ccc(N(Cc2ccc3c(c2)CCN3C)C(=O)C2CC2)cc1 | -0.12 | ·
O=C(CN1CCN(S(=O)(=O)c2ccc3c(c2)OCCCO3)CC1)N1CCCc2ccccc21 | · | 0.35
O=c1c2cc3c(=O)n(-c4ccccn4)c(=O)c3cc2c(=O)n1-c1ccccn1 | -0.41 | -0.05
O=C(/C=C(\O)c1ccc(Br)cc1)C(=O)Nc1ccccc1 | 1.4 | -0.55
CC(C)NS(=O)(=O)NC(C)C | 0.41 | -0.35
C=CCn1cnc2c(c1=O)c1nc3ccccc3nc1n2CCC1=CCCCC1 | · | 0.25
CN1N=C(c2ccccc2)NN(C)P1(=S)c1ccccc1 (centres undefined) | · | 1.4
O=c1oc(-c2ccccc2F)nc2sc3c(c12)CCCCC3 | 0.29 | ·
CCn1cc(C(=O)O)c(=O)c2cc(Cl)ccc21 | -0.26 | 0.25
O=C1OCCC1Sc1ncc(C(F)(F)F)cc1Cl (centres undefined) | · | -0.6
CC(C)CC(=O)N1CCC(c2c[nH]c3ccccc23)(c2c[nH]c3ccccc23)CC1 | -0.59 | -0.3
NC1=C(c2nc3ccccc3s2)CC(c2ccccc2)O1 (centres undefined) | · | -1.4
COc1ccc(N(Cc2nc3ccccc3s2)S(=O)(=O)c2cccs2)cc1 | · | -0.45
CCOc1ccc(N2C(=O)C3C4c5ccc(C(C)(C)C)cc5C(c5ccc(C(C)(C)C)cc54)C3C2=O)cc1 (centres undefined) | -0.08 | ·
COC(=O)C1=NOC2C(=O)N(c3ccc(C)cc3)C(=O)C12 (centres undefined) | -0.24 | 0.7
S=C(/N=C/NOCc1ccc(Cl)cc1Cl)Nc1ccccc1 | -0.11 | ·
O=C(NC1=NCCS1)C1CCN(S(=O)(=O)c2ccc3c(c2)OCCCO3)CC1 | · | -0.45
CCc1cccc(C)c1NC(=O)c1cc(S(=O)(=O)N2CCC(C)CC2)ccc1F | -0.44 | ·
CC1Cc2ccccc2N1C(=O)CN(C)S(=O)(=O)c1cccc2cccnc12 (centres undefined) | 0.16 | 2.1
Nc1ncnc2c1nc(SCCC(=O)O)n2Cc1ccccc1 | -0.34 | -1
Cc1nc([N+](=O)[O-])cn1CC(=O)c1ccccc1 | -0.3 | ·
Cc1ccc(N/C(SCc2cccc(Br)c2)=C(/C#N)C(=O)NCc2ccco2)cc1C | 0.41 | ·
CC1(C)CC(=O)C(C=NC(Cc2ccccc2)C(=O)O)=C(O)C1 (centres undefined) | · | 0.55
O=C(C1CC(=O)N(C2CCCCCCC2)C1)N1CCC2(CC1)OCCO2 (centres undefined) | -0.14 | -0.1
CC(C(=O)O)N1C(=O)C2C3C=CC(C3)C2C1=O (centres undefined) | -0.37 | -0.2

Compound profiles (already shown).
Cc1nc([N+](=O)[O-])cn1CC(=O)c1ccccc1 across the screens: Ba CapD inh = -0.3; AID504770 = ·
O=C(C1CC(=O)N(C2CCCCCCC2)C1)N1CCC2(CC1)OCCO2 (centres undefined) across the screens: Ba CapD inh = -0.14; AID504770 = -0.1

Next section
SMILES | Ba CapD inh | AID504770
C=C(C)COc1ccc2oc(-c3ccccc3)c(C(=O)O)c2c1 | 101 | 0.4
CCN(C(=O)c1cccnc1OCC(F)(F)F)c1ccc(Cl)cc1 | -0.88 | 0.3
Cc1cccc(-c2nc(C)cc(OC(=O)N(C)C)n2)c1 | -0.72 | -0.75
CS(=O)(=O)N1CCCC(C(=O)N2CCC3(CC2)OCCO3)C1 (centres undefined) | 0.6 | -0.5
Cn1c(=O)n(C)c2cc(NC(=O)C3COc4ccccc4O3)ccc21 (centres undefined) | · | -1
COCc1nnc(NC(=O)C2CCN(C(=O)c3ccco3)CC2)s1 | · | 0.7
COc1c(Br)cc(C)c2c1CCC2 | 0.66 | ·
CCOC(=O)C1CCCN(c2c3c(nc4cc(-c5ccc(C)cc5)nn24)CCC3)C1 (centres undefined) | · | 0.65
CC1=C(C(=O)Nc2ccc(Cl)cc2)C(c2ccco2)C(C#N)=C(SCC(=O)Nc2ccc(C)cc2C)N1 (centres undefined) | 3 | ·
CCOC(=O)C1CCN(C(C)C(=O)Nc2ccc(C(C)C)cc2)CC1 (centres undefined) | · | -0.2
O=C(Cc1cccc(C(F)(F)F)c1)OCN1C(=O)c2ccccc2C1=O | · | -0.3
CN(Cc1nc(-c2ccccc2)no1)C(=O)Nc1ccccc1 | 1.5 | -0.15
COC(=O)CCC(=O)c1c(C)[nH]c2ccccc12 | 0.77 | 0.8
CCOC(=O)N1CCN(C(=O)CCn2c(=S)[nH]c3cc(OCC)c(OCC)cc3c2=O)CC1 | -0.35 | -1.1
O=C1OC2C=CC=CC2C=C1C(=O)N1CCSC1c1ccc2c3c(cccc13)CC2 (centres undefined) | -0.41 | ·
O=C(OCc1nc2ccccc2s1)c1cccc(-n2cnnn2)c1 | · | -0.15
Cc1cc(-c2nn(C)c(=O)c3ccccc23)cc(C)c1OC(=O)c1ccc(C(F)(F)F)cc1 | -0.84 | ·
O=C(OCc1c(Cl)nc2sccn12)c1cc2c(s1)CCCC2 | · | -1.6
COc1cccc(NC(=O)NC(C)(C)C)c1 | -1.8 | 0
Cc1oc(-c2cccc(Cl)c2)nc1CN1CCC(C(=O)NCCCN2CCCC2)CC1 | 3.2 | -0.2
CCCN(C(=O)[C@H]1[C@@H]2C[C@@H]3[C@H]1C(=O)O[C@@H]3C2)c1ccccc1F | 0.28 | -0.8
O=C(CSc1nc2ccc(N3C(=O)c4ccc([N+](=O)[O-])cc4C3=O)cc2s1)NCC1CCCO1 (centres undefined) | 0.15 | ·
CCCOc1ccc(/C=c2\sc3nc(=O)c(C)nn3c2=O)cc1 | -0.41 | ·
Cc1nc2ccccc2nc1CSc1nncs1 | · | 0
N#C/C(=C/c1ccc(-c2ccc(S(N)(=O)=O)cc2)o1)C(=O)Nc1cc(Cl)ccc1Cl | · | 1.3
CN(C(=O)c1cc2ccccc2oc1=O)C1CCS(=O)(=O)C1 (centres undefined) | 5.5 | -0.15
O=c1[nH]cnc2c1sc(=S)n2-c1ccccc1 | -5.4*! | -0.8&-1.7
COC(=O)c1ccc(-n2c(C)cc(/C=C3/C(=O)NC(=O)N(c4ccc(OC)cc4)C3=O)c2C)cc1 | 0.095 | ·
COC(=O)c1cc(NC(=O)c2cc3c(ccc4ccccc43)oc2=O)cc(C(=O)OC)c1 | 0.32 | ·
CC1CC(C)(C)NC(=S)N1CC(=O)N1CCN(c2ccc(F)cc2)CC1 (centres undefined) | -0.22 | -0.95
COc1cc(/C=C2/SC(=S)NC2=O)cc(OC)c1OC | -1.9 | ·
CC(C)(C)NC(=O)[C@@H]1C[C@@H]2CCCC[C@@H]2CN1 | 0.51 | -0.5
O=C(c1cc(-c2ccc3c(c2)OCO3)on1)N1CCCCC1 | 0.2 | 0.4
CC(C)(C)C(=O)Nc1ccc(F)cc1[N+](=O)[O-] | 0.21 | ·
O=C(c1ccco1)N1CCN(C(=O)C2CCCO2)CC1 (centres undefined) | -0.37 | -0.75
Cc1ccc(NC(=O)CNc2ccccc2)cc1 | -0.45 | -0.55
CCc1ccc(C(=O)COC(=O)C(Cc2c[nH]c3ccccc23)NC(=O)c2ccco2)cc1 (centres undefined) | -0.065 | ·
COc1ccc2oc(=Nc3ccc(C(=O)O)cc3)c(C(=O)NCc3ccccc3)cc2c1 | 4.2 | -0.3
CN(c1cccc(NS(C)(=O)=O)c1)S(C)(=O)=O | -0.44 | 2
O=C(/C=N/O)NCCN1CCCCC1 | · | -1.1
CC(C)c1ccc(Nc2nn3c(=O)c4ccccc4nc3s2)cc1 | -0.71 | 1.2
Cc1cc(=O)n(C)c(=O)n1CCCN1CCCC1 | 0.73 | 0.1
N#Cc1ccc(C2C3=C(CCCC3=O)NC3=C2C(=O)CCC3)cc1 | 95 | -0.95
O=C(CCC(=O)NC1CCN2CCCc3cccc1c32)NCCN1CCOCC1 (centres undefined) | -0.27 | ·
Cc1nc(S/C(=C/c2ccc(-c3ccc(Cl)cc3)o2)C(=O)O)n[nH]1 | · | -0.55

Looked up above:
For Ba CapD inh, `Cc1cc(=O)n(C)c(=O)n1CCCN1CCCC1` is listed with 0.73
For Ba CapD inh, `O=C(c1ccco1)N1CCN(C(=O)C2CCCO2)CC1` (centres undefined) is listed with -0.37
For AID504770, `Cc1ccc(NC(=O)CNc2ccccc2)cc1` is listed with -0.55
For AID504770, `Cc1nc(S/C(=C/c2ccc(-c3ccc(Cl)cc3)o2)C(=O)O)n[nH]1` is listed with -0.55

Reformatted as a markdown table: 4 of the compounds above.
| Structure | Ba CapD inh | AID504770 |
| --- | --- | --- |
| CC(C)(C)C(=O)Nc1ccc(F)cc1[N+](=O)[O-] | 0.21 | · |
| O=C(c1ccco1)N1CCN(C(=O)C2CCCO2)CC1 (centres undefined) | -0.37 | -0.75 |
| Cc1ccc(NC(=O)CNc2ccccc2)cc1 | -0.45 | -0.55 |
| CCc1ccc(C(=O)COC(=O)C(Cc2c[nH]c3ccccc23)NC(=O)c2ccco2)cc1 (centres undefined) | -0.065 | · |

The list goes on.
SMILES | Ba CapD inh | AID504770
Cc1cc(NC(=O)C(F)(F)C2(F)OC(F)(F)C(F)(F)C2(F)F)no1 (centres undefined) | · | 0.25
Cc1nn2c(-c3ccc(NC(=O)c4ccccc4Cl)cc3)nnc2c2ccccc12 | -0.21 | -0.65
Cc1ccc(NC(=O)C2CC(=O)N=C(N)S2)cc1C (centres undefined) | -0.61 | 0.85
N#CC1=C(SCC(N)=O)NC(=O)CC1c1ccccc1Cl (centres undefined) | -0.045 | -0.7
O=C(Nc1cc2ccccc2s1)NC1Cc2ccccc2C1 | -1.6 | 0.5
CCOc1[nH]n(-c2ccc(Cl)cc2)c(=O)c1C=Nc1ccc(O)cc1 | -0.81 | ·
Cc1ccc(S(=O)(=O)N2CC=C(n3c(=O)[nH]c4ccccc43)CC2)cc1Cl | 0.47 | ·
Cc1ccccc1NC(=O)CSc1ncn[nH]1 | · | -0.1
NC(=O)CSc1nc2c(c(=O)n1-c1ccccc1)C1=C(CCC1)C2 | 7.9 | -0.5
COc1ccc(N2CCN(C(=O)CN3CCN(S(=O)(=O)c4ccc(C(C)(C)C)cc4)CC3)CC2)cc1 | · | 1.7
COc1cc(OC)cc(C(=O)OCCN(C2=NS(=O)(=O)c3ccccc32)c2ccccc2)c1 | 0.31 | ·
COc1nc(-c2ccccc2)cc(-c2ccccc2)c1C#N | 40 | 0.55
CC(C)(CC(=O)O)Sc1ccc(Cl)cc1 | 0.46 | ·
Cc1ccc(OCNC(=O)N2CCOCC2)cc1 | · | -0.45
COCc1cc(OC)nc(-c2csc(C)n2)n1 | 0.22 | -1.2
COc1ccc(CCNC(=O)c2ccn[nH]2)cc1OC | -1.1 | -0.6
Cc1ccc(NCC(O)Cn2c(C)c(C)c3ccccc32)cc1 (centres undefined) | 0.19 | -0.3
O=S(=O)(NCCc1ccccn1)c1ccc2c(c1)OCCCO2 | -0.76 | -0.7
CC1CCCCN1c1ncccc1C(=O)NC1CCCC1 (centres undefined) | · | -0.7
O=C(CSc1nc2nccnc2c(=O)n1Cc1ccccc1)Nc1ccccc1C(F)(F)F | -1.5 | 0.2
N#Cc1ccc(C(=O)OCc2ccccc2)cc1 | 0.47 | -0.2
Nc1cc(-c2n[nH]c(=S)o2)ccc1Cl | 21 | ·
CC(C)(CO)N1Cc2ccccc2C1=O | -0.11 | -0.65
O=C(N/N=C/c1cn(Cc2ccccc2)c2ccccc12)c1ccc2nonc2c1 | 0.085 | ·

Screening data: PubChem BioAssay, ICCB-Longwood Screening Facility, Harvard Medical School

A portion of the library; the hit share may differ from the screen's.
